GIV-Gai inh: inhibitors of GIV peptide binding to Galpha-i3, primary screen, biochemical, fluorescence polarization, FITC-GIV GBA peptide, rat Galphai3. 210,000 tested, 0.42% active. 90 min; hits give low values; scaled: aluminum fluoride 0%, vehicle 100%. percent of control (FP), % (test concentration not listed);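 active = replicate mean at 85% of control or lower, very high polarization wells dropped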;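 note: wells of about 15 µL received 100 nL stock; the first replicate is given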
Target sequence (P08753 whole entry, looked up): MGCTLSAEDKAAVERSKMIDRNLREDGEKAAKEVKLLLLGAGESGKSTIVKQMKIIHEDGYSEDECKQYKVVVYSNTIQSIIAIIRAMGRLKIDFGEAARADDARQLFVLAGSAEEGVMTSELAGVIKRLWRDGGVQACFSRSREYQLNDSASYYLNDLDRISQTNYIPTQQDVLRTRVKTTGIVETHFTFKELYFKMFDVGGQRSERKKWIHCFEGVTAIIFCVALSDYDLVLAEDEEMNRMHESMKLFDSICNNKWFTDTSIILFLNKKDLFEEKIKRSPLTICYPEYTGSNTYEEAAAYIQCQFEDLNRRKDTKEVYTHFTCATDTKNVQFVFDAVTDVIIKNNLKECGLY
* hit, by the source's call.

GIV-Gai inh	SMILES
109	COc1ccc2nc(SCC(=O)Nc3ccc(Oc4ccccc4)cc3)[nH]c2c1
104	CCn1cc(S(=O)(=O)N2CCCn3nc(-c4cccs4)cc3C2)cn1
104	COc1ccc(-n2nc(C(=O)N3CCN(c4ccccn4)CC3)c3ccccc3c2=O)c(OC)c1
106	CCOC(=O)C1=C(C)NC2=C(C(=O)c3ccccc32)C1c1ccccc1OCC(=O)O (stereo not drawn)
113	Cc1cccc(C(=O)N2c3c(C)cccc3C(Nc3ccccc3C)CC2C)c1 (stereo not drawn)
111	CCN(CC)c1ccc(C(c2c(C)n(C)n(-c3ccccc3)c2=O)c2c(C)n(C)n(-c3ccccc3)c2=O)cc1
89	CCC1C/C(=C\c2ccc(OCC(N)=O)cc2)C(=O)/C(=C/c2ccc(OCC(N)=O)cc2)C1 (stereo not drawn)
103	O=C(C1CCCN(S(=O)(=O)c2cccc3cccnc23)C1)N1CCN(c2ccc(F)cc2)CC1 (stereo not drawn)
62*	COc1cccc(C2=N/C(=C\c3ccccc3OC)C(=O)N2c2cccc(F)c2)c1
105	CCN1CCN(C(=O)c2sc3ncn(CC)c(=O)c3c2C)CC1
105	CCOCCCNC(=O)c1ccc(-c2nccc(Oc3cccc(OC)c3)n2)cc1
109	O=C(Nc1cccc(Br)c1)c1cncc(-c2ccc(F)cc2)c1
107	C=CCSc1c(CCC)cnc2c1c(=O)n(C)c(=O)n2C
98	O=C(C1=CN(c2ccccc2)c2ccccc2S1(=O)=O)N1CCCC1
103	COc1cccc(-c2cn3c4c(=O)n(C)c(=O)n(C)c4nc3n2-c2ccc3c(c2)OCCO3)c1
117	CCOCCn1cnc2sc(C(=O)N3CCN(CC)CC3)c(C)c2c1=O
95	CCn1ncc(Cl)c1C(=O)N1CCCC1c1cc(C(C)C)no1 (stereo not drawn)
119	Cc1ccc(C)c(N2CCN(c3ncc(NC(=O)c4ccc(F)cc4)cc3C(=O)O)CC2)c1
102	CCOc1ccc(C(=O)Nc2ccc(-c3nc4cc(C)cc(C)c4o3)cc2)cc1Cl
103	O=C(CN1CCCN(Cc2ccccc2F)S1(=O)=O)N1CCCCC1
103	COCCCNC(=O)CN1c2ccccc2NC2=C(C(=O)CCC2)C1c1cccs1 (stereo not drawn)
105	CC(C)c1cc(C2CCCN2Cc2ccc(F)c(F)c2)no1 (stereo not drawn)
112	O=[N+]([O-])c1ccc2c(c1)-c1ccccc1S(=O)(=O)N2
99	CCCc1cc(C2CCCN2C(=O)NCCC(C)C)no1 (stereo not drawn)
115	COc1ccc(Br)cc1C=Nc1c(C)n(C)n(-c2ccccc2)c1=O
105	c1ccc(-c2nnc(SC3CCCC3)nc2-c2ccccc2)cc1
101	CCOc1ccccc1NC(=O)Nc1ccc(-c2cc3cc(Cl)ccc3[nH]2)cc1
99	CCOC(=O)c1[nH]c(C)c(CN(CC2CCCO2)C(=O)c2ccc(OCC)cc2)c1C (stereo not drawn)
105	O=S(=O)(c1ccccc1)N1CC2c3ccccc3CCN2C1c1ccccc1 (stereo not drawn)
105	CN(C)c1ccc(C2=Nc3cccc4cccc(c34)N2)cc1

Quoted at random: six entries already listed
GIV-Gai inh	SMILES
99	CCOC(=O)c1[nH]c(C)c(CN(CC2CCCO2)C(=O)c2ccc(OCC)cc2)c1C (stereo not drawn)
103	COc1cccc(-c2cn3c4c(=O)n(C)c(=O)n(C)c4nc3n2-c2ccc3c(c2)OCCO3)c1
102	CCOc1ccc(C(=O)Nc2ccc(-c3nc4cc(C)cc(C)c4o3)cc2)cc1Cl
101	CCOc1ccccc1NC(=O)Nc1ccc(-c2cc3cc(Cl)ccc3[nH]2)cc1
105	CN(C)c1ccc(C2=Nc3cccc4cccc(c34)N2)cc1
111	CCN(CC)c1ccc(C(c2c(C)n(C)n(-c3ccccc3)c2=O)c2c(C)n(C)n(-c3ccccc3)c2=O)cc1

More compounds.
GIV-Gai inh	SMILES
108	COC(=O)c1ccc(N2CCN(C)CC2)c(NC(=O)COc2ccc(Cl)cc2)c1
105	COc1ccc(NC(=O)c2ccc3nn(CC(=O)Nc4ccc(C(C)C)cc4)c(=O)n3c2)cc1
115	O=C(O)CN1C(=O)C(=O)/C(=C(\O)c2ccc(Br)cc2)C1c1ccccc1 (stereo not drawn)
101	CN(C)S(=O)(=O)c1ccc2c(c1)cc(C(=O)NCCc1c[nH]c3ccccc13)n2C
108	CCCCN(CC)S(=O)(=O)c1ccc(F)c(C(=O)Nc2ccc(C)c(C)c2)c1
103	CCOC(=O)c1cc(C)nc2c1c(=O)n(Cc1nc(-c3ccc(OCC)cc3)oc1C)c(=O)n2C
105	Cc1ccc(Cn2c3ccc(F)cc3c3ncn(Cc4nc(C5CC5)no4)c(=O)c32)cc1
113	CCOC(=O)c1c(CN2CCOCC2)n(CC(=O)OC)c2cc(Br)c(OC)cc12
104	Cc1cc(Br)ccc1NC(=O)CCCNC(=O)Cn1cnc2sc3c(c2c1=O)CCCC3
108	Brc1ccc(-c2nc(-c3ccccc3)[nH]c2-c2ccc(Br)cc2)cc1
107	O=c1ccc(-c2ccccc2)nn1CCc1nc(-c2ccncc2)no1
107	Cc1nn(-c2ccc(F)cc2)c2c1c(=O)c(C(=O)Nc1cccc(Cl)c1)cn2C
110	CCCC1C(c2ccccc2)NC(c2ccccc2)CC1(C)O (stereo not drawn)
117	CC(=O)C1=NN(c2ccccc2)C(c2ccc(N(C)C)cc2)N1c1ccc(C)cc1 (stereo not drawn)
97	COc1ccc(NS(=O)(=O)c2ccc3c(c2)c(=O)n(CC(=O)N2CCCC2)c(=O)n3C)cc1
98	O=S(=O)(c1cc(-c2noc(C3CCCC3)n2)cs1)N1CCOCC1
106	CC1(C)OC2OC(COC(=O)/C=C/c3ccccc3)C3OC(C)(C)OC3C2O1 (stereo not drawn)
94	CCOc1ccc(C(=O)NCCOc2ccc(-c3ccccc3)nn2)cc1
104	Cc1ccc(N2C(=O)C3C4C=CC(CC4)C3C2=O)c([N+](=O)[O-])c1 (stereo not drawn)
109	CC1CC(N(C(=O)c2cccc(F)c2)c2ccccc2)c2ccccc2N1C(=O)c1cccc(F)c1 (stereo not drawn)
106	O=C(CSc1nc2cc(C(=O)N3CCC4(CC3)OCCO4)ccc2c(=O)n1Cc1ccc2c(c1)OCO2)c1ccccc1
100	O=C1CN(C(=O)OCc2ccccc2)C(c2ccccc2)=C2C=C(Br)C=CC2N1 (stereo not drawn)
103	N#CC1=C(SCC(=O)Nc2cc(Cl)cc(Cl)c2)NC(=O)CC1c1cccs1 (stereo not drawn)
103	Cn1c(=O)[nH]c2c(C(=O)N3CCC4(CC3)OCCO4)snc2c1=O
104	O=S(=O)(Nc1cnn(-c2ncc(N3CCCC3)cn2)c1)c1ccc2c(c1)CCCC2
110	NC(=O)C1CCN(C(=O)c2ccc3c(=O)n(-c4ccccc4)c(SCC(=O)c4ccc(Cl)cc4)nc3c2)CC1
110	Cc1cc(C)nc(NS(=O)(=O)c2ccc(NC(=O)/C=C/c3ccccc3)cc2)n1
98	O=C(Nc1ccccc1)Nc1cccc(-c2nnc(-c3ccccc3)o2)c1
105	CC1(CNC(=O)c2cc(-c3cccs3)[nH]n2)CCOCC1
105	Cn1nnc(NCc2ccc(-c3ccccc3Cl)o2)n1

Quoted from the listing.
In GIV-Gai inh, c1ccc(-c2nnc(SC3CCCC3)nc2-c2ccccc2)cc1 has 105
In GIV-Gai inh, CCn1cc(S(=O)(=O)N2CCCn3nc(-c4cccs4)cc3C2)cn1 has 104

Other compounds:
GIV-Gai inh	SMILES
106	Cc1c(S(=O)(=O)NCC2CC2)c(C)n(C)c1-c1nnc(C2CCC2)o1
102	O=C(Nc1nc2ccccc2n1CCOc1ccccc1)c1ccco1
116	C=CCOc1c(I)cc(I)cc1C=Nc1c(C)n(C)n(-c2ccccc2)c1=O
100	Brc1ccc(-c2noc(Cc3nc(-c4ccc5c(c4)OCO5)cs3)n2)cc1
107	CC(C)CCCC(C)C1CCC2C3CC=C4CC(OC(=O)CCCCl)CCC4(C)C3CCC12C (stereo not drawn)
98	CC(C)CC(=O)Nc1ccc(S(=O)(=O)N2CCCC2c2nc(-c3ccc(F)cc3)no2)cc1 (stereo not drawn)
101	CN1CCN(S(=O)(=O)c2ccc3c(c2)N(Cc2noc(C4CCC4)n2)C(=O)CO3)CC1
111	CCOCCOC(=O)C1=C(C)NC(=O)CC1c1ccccc1Cl (stereo not drawn)
105	Cc1c(C(=O)Nc2ccc(F)cc2F)sc2ncnc(N3CCCCC3)c12
108	O=C(NC1CC1)C1CCCN(C(=O)c2ccoc2)C1 (stereo not drawn)
102	Cc1ccc(C(=O)N/C(=C/c2cccs2)C(=O)NCCc2c[nH]c3ccccc23)cc1C
101	NC(=O)C1CCN(S(=O)(=O)c2ccc3[nH]cc(C(=O)O)c(=O)c3c2)CC1
103	O=S(=O)(c1ccc2c(c1)CCC2)N1CCOc2ccc(COCc3ccc(F)cc3)cc2C1
106	CCSc1nnc(NC(=O)CSc2nc3c(c(=O)n2-c2ccc(Br)cc2)SCC3)s1
106	CCN1CCN(c2cc(C)nc3nc(CN4CCN(C(C)C)CC4)nn23)CC1
104	Cc1ccc(-c2nnc3ccc4ccccc4n23)cc1
102	c1cc(-c2nc3c(c(NCC4CCCO4)n2)CCC3)ccn1 (stereo not drawn)
106	CCc1cc(C2CCCN2S(=O)(=O)c2cc3c(cc2Br)CCN3C(C)=O)on1 (stereo not drawn)
111	Cc1c(CC(Cl)(Cl)Cl)c2c(n1-c1ccc(OC(F)(F)F)cc1)CC(C)(C)CC2=O
98	CS(=O)(=O)c1nc2ccc(NS(=O)(=O)c3cccc4nsnc34)cc2s1
113	O=C1C=C(/C=C/c2cccs2)C[C@H](c2cccs2)[C@H]1n1cnc([N+](=O)[O-])c1
109	CCc1onc(C)c1C1CCCN1Cc1ccc(C(=O)OC)cc1 (stereo not drawn)
106	CC(=O)N1CC(C)(C)c2cc(S(=O)(=O)N3CCOCC3)ccc21
97	FC(F)(F)C1=Nc2ccccc2N=C(c2cccs2)C1
116	CCOC(=O)c1cc2c(N)c(C(=O)Nc3cccc(C(F)(F)F)c3)sc2nc1N
97	CCc1nc(CN2C(=O)COc3cc(S(=O)(=O)N4CCOCC4)c(Cl)cc32)no1
100	COc1ccc(NS(=O)(=O)c2cc(-c3nc(C(C)(C)C)cs3)cs2)c(OC)c1
108	CCS(=O)(=O)c1nc2ccc(NS(=O)(=O)c3c(C)n[nH]c3C)cc2s1
105	COCCn1c(CNC(=O)c2ccccc2Br)nc2cccnc21
109	C=CCNC(=S)N1CCN(C2c3cccc4cccc(c34)C2NS(=O)(=O)c2ccccc2)CC1 (stereo not drawn)
131	Cc1c(NC(=O)/C(=C\c2ccccc2)NC(=O)c2ccccc2)c(=O)n(-c2ccccc2)n1C
104	CCCCc1nc2c3ccccc3n(CC(=O)c3c[nH]c4ccccc34)c(=O)n2n1
108	COC(=O)C1=C(C(=O)OC)SC(=C2C(=S)C(C)(C)N(C(=O)c3ccccc3)c3c(C)cc(C)cc32)S1
103	O=C(Cn1cccc1-c1nnc(C2CC2)o1)NC1CCCCC1
98	CC(C)NS(=O)(=O)c1cc2c3c(c1)CC(=O)N3CCC2
107	O=C(c1cccc(F)c1F)N1CCc2c([nH]c3ccccc23)C1c1ccc2c(c1)OCO2 (stereo not drawn)
100	C=CCn1c(SCC(=O)N2CCCC2)nnc1-c1cc2ccccc2o1
111	Cn1c(=O)c2c(ncn2Cc2ccc(Cl)cc2Cl)n(C)c1=O
101	Cc1nn(-c2ccccc2)cc1C(=O)N1CCC(CC(=O)NCc2ccccc2)CC1
107	CC(=O)C1=NN(c2ccccc2C)C2(S1)c1ccccc1C(c1cc(C)ccc1C)=NN2c1ccccc1 (stereo not drawn)
106	CCCN1CCCCC1c1nc(-c2ccncc2)no1 (stereo not drawn)
105	COc1cc(OC)c(NC(=O)N2CCCCCC2c2cccs2)cc1Cl (stereo not drawn)
106	Cc1sc(-c2nc(C(C)C)cs2)cc1S(=O)(=O)NCc1ccc(N(C)C)cc1
110	Cc1ccccc1S(=O)(=O)Nc1cccc(C(=O)N2CCCC2C(=O)NC2CCCC2)c1 (stereo not drawn)
100	O=C(NC1CCCCC1)N1CCN(c2cc(-c3cccc(F)c3)ncn2)CC1
106	COC(=O)CON1C(=O)CN(C(=O)c2ccccc2)C1c1cccc([N+](=O)[O-])c1 (stereo not drawn)
101	Cc1ccc(-c2noc(C3CCCN3C(=O)C3CCN(S(=O)(=O)c4ccc(C)cc4)CC3)n2)cc1 (stereo not drawn)
102	CCCn1c(=O)c(-c2ccc(C(=O)N3CCN(c4ccccc4F)CC3)cc2)nc2ccccc21
110	CCOC(=O)C1=C(O)/C(=C/c2ccc([N+](=O)[O-])cc2)SC1=Nc1ccccc1
108	Cc1ccc(S(=O)(=O)Nc2cc3c4c(oc3c3ccccc23)CCC(C)C4)cc1 (stereo not drawn)
102	CCSc1nccc2c1ccn2CC(=O)NCc1ccc(Br)cc1
98	Cc1ccc(Sc2c(F)c3c(c(F)c2Sc2ccc(C)cc2)C(=O)c2ccccc2C3=O)cc1
112	COC(=O)C1=C(C(=O)OC)SC2(S1)C(C(=O)OC)=C(C(=O)OC)SC1=C2c2cc(C)ccc2N(Cc2ccccc2)C1(C)C
97	Cc1ccc(-c2cncc(C(=O)NCc3ccc(Br)cc3)c2)cc1
103	O=C(COc1ccc(-c2cnc3ccccc3n2)cc1)Nc1cc(F)ccc1F

Some of these compounds in order of their number in GIV-Gai inh, highest first:
GIV-Gai inh	SMILES
110	CCOC(=O)C1=C(O)/C(=C/c2ccc([N+](=O)[O-])cc2)SC1=Nc1ccccc1
108	COC(=O)C1=C(C(=O)OC)SC(=C2C(=S)C(C)(C)N(C(=O)c3ccccc3)c3c(C)cc(C)cc32)S1
106	Cc1sc(-c2nc(C(C)C)cs2)cc1S(=O)(=O)NCc1ccc(N(C)C)cc1
105	COc1cc(OC)c(NC(=O)N2CCCCCC2c2cccs2)cc1Cl (stereo not drawn)
104	CCCCc1nc2c3ccccc3n(CC(=O)c3c[nH]c4ccccc34)c(=O)n2n1
102	CCSc1nccc2c1ccn2CC(=O)NCc1ccc(Br)cc1
97	Cc1ccc(-c2cncc(C(=O)NCc3ccc(Br)cc3)c2)cc1

These rows are one share of the data; count on the stated rates, not on these rows.
